D2 agonist: activates the human D2 dopamine receptor; P14416; HEK293 T-REx D2 cells, calcium flux agonist mode; activation, % at 2 µM; hit rate 0.53% among 340,000; AID 485358;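 active = activation over 3 SD above normal in the single-dose calcium agonist read, cut at about 30% in these data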; also: 0% is about no effect
Target sequence (P14416 whole entry, looked up): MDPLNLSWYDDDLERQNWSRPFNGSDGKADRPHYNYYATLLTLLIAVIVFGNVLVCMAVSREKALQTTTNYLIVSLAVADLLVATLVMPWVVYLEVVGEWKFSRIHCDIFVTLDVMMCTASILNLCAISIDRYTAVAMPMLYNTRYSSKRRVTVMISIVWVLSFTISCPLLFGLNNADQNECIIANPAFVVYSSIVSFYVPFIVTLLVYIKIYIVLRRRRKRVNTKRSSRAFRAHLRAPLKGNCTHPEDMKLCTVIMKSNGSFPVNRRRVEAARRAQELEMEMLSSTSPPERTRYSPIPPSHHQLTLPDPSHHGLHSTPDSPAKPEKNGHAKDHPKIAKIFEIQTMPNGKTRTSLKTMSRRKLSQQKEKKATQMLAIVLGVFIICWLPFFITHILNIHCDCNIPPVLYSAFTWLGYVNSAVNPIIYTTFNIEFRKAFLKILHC
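Agonism scored from kinetic calcium signal (1 read/sec, 180 s) following compound pin transfer, after a 10 s baseline. Cells: HEK293 Trex line expressing inducible D2 receptor coupled to calcium, dye-loaded after overnight culture at 30 C.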
GRP78 ERSR act: ER stress response induction in glioma | U87-MG GRP78 promoter luciferase reporter, 16 h | Potency, µM, for inactives: at the top dose activation, hits mostly activators | hit rate 0.02% among 420,000 | AID 602332; also: potency is read from the fitted curve at half-maximal effect; series mostly up to about 76 µM; % of control where 0% means no effect; nearly all actives have a fitted effect of over 35% in size
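Stably transfected U87-MG glioma cells carrying a GRP78-based luciferase sensor; 16 h compound incubation. Luminescence end-point read 10 min after Bright-Glo addition at room temperature.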
RGS4 inhibitor: human RGS4 inhibition. P49798. Transcreener GDP fluorescence polarization, RGS4-accelerated GTP hydrolysis. Potency, µM (doses to about 114 µM), for inactives: at the top dose activity change, negative = inhibition, actives largely listed as inhibitors. hit rate 0.039% among 390,000; also: potency is read from the fitted curve at half-maximal effect; % is scaled to controls: 0 for no effect and ±100 for the full control effect; nearly all actives have a fitted effect of over 75% in size; some results filed as inactive show a strong effect at the top dose
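MLSMR compounds (23 nl, pin-transferred) preincubated 10 min at room temperature with a 500nM (2x) first reagent, then RGS4 at 900nM (2x) plus Transcreener GDP mix added; fluorescence polarization (620/688 nm) read before and after 90 min at 30 °C.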
ALOX12 inh: blocks human arachidonate 12S-lipoxygenase. hit rate 1.1% among 580,000. purified 12hLO, xylenol orange hydroperoxide absorbance. P18054. Potency, µM (doses to about 108 µM), inactives show at the highest dose activity change, negative = inhibition, actives largely listed as inhibitors. AID 1671190; also: potency is read from the fitted curve at half-maximal effect; % is scaled to controls: 0 for no effect and ±100 for the full control effect
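Purified human 12hLO at 150 nM in 25 mM Hepes, 0.01% Triton X-100, pH 7.0, preincubated 15 min at room temperature with compound. Reaction started with 40 uM arachidonic acid, 30 min at room temperature. Hydroperoxide measured by Fe-xylenol orange, 573/405 nm absorbance ratio.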
D2 antag: antagonizes the human D2 dopamine receptor. inhibition, % at 10 µM. HEK293 TREx D2 cells, calcium flux, dopamine EC80. hit rate 2% among 340,000. P14416. AID 485344; in the data active = inhibition above about 30%; also: 0% is about no effect
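Antagonism is scored as inhibition of an EC80 dopamine-evoked calcium signal in a force-coupled, tetracycline-inducible HEK293 T-REx D2 line, with compound present 180 s before agonist.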
Starred values were filed as active, the others as inactive; u = inconclusive; x = no result given; & = joins results of further samples; [ ] = remark or other dose. Unless noted, calls follow the shape of the dose curve; as a rule, active = well fitted curve in the direction sought with a large enough effect; inconclusive = small, poorly fitted or top-dose-only effect, or another doubt; inactive = no such curve, though single readings can be large; an effect the other way counts as inactive or inconclusive. Only part of the results is shown. The share of hits here may be higher or lower than overall.

item | structure | RGS4 inhibitor | GRP78 ERSR act | D2 agonist
1 | COc1cccc2c1C(=O)c1c(O)c3c(c(O)c1C2=O)C[C@@](O)(C(C)=O)C[C@@H]3O[C@H]1C[C@H](N)[C@H](O)[C@H](C)O1 | u | -4%&-3%&-3% | 2.5
2 | O=C(CSc1ncnc2ccccc12)NCc1ccc2c(c1)OCO2 | -32% | 0% | -0.3
3 | O=C1NC[C@@H](c2ccccc2)OC(=O)[C@H](Cc2ccc(F)cc2)CC/C=C/C[C@H]1CC(=O)N(CCO)Cc1ccccc1 | -12% | -4% | x
4 | Cc1cc(C)c2c(=O)n(CC(=O)Nc3ccc(Br)c(C)c3)sc2n1 | -138% | -9% | 4.8
5 | CC1OC1P(=O)(O)O (centres undefined) | 12%[56.9 µM] | -3%&0% | x
6 | O=C1NC[C@@H](c2ccccc2)OC(=O)[C@@H](Cc2ccc(F)cc2)CC/C=C/C[C@H]1CC(=O)N(CCO)Cc1ccccc1 | -11% | -3% | x
7 | O=C1NC[C@H](c2ccccc2)OC(=O)[C@H](Cc2ccc(F)cc2)CC/C=C/C[C@@H]1CC(=O)N(CCO)Cc1ccccc1 | 2% | -1% | x
8 | Cc1nc(=O)c(-c2ccccc2)c(C)n1-c1ccc(O)c(C(=O)O)c1 | 11% | -2% | 0.7

item | ALOX12 inh | D2 antag
1 | 0% | 1
2 | 1% | 0
3 | -11% | x
4 | -106% | 8
5 | x | x
6 | 0% | x
7 | u | x
8 | u | 20

Next part:
item | structure | RGS4 inhibitor | GRP78 ERSR act | D2 agonist
9 | Cc1ccc2c(CC(=O)N3CCN(S(=O)(=O)c4ccc5c(c4)OCCO5)CC3)coc2c1 | 16% | -4% | 0.4
10 | CC(C)=CCC[C@](C)(OC1OC(COC2OCC(O)C(O)C2O)C(O)C(O)C1O)C1CC[C@]2(C)C1C(O)CC1[C@@]3(C)CCC(O[C@@H]4O[C@H](CO)C(O)C(O)C4O[C@@H]4OC(CO)C(O)C(O)C4O)C(C)(C)C3CC[C@]12C (some centres undefined) | -15% | -6% | x
11 | NC(CO)(CO)CO | x | -6%&3% | x
12 | COC1C=CO[C@@]2(C)Oc3c(C)c(O)c4c(O)c(c(C=NN5CCN(C)CC5)c(O)c4c3C2=O)NC(=O)/C(C)=C\C=CC(C)C(O)[C@@H](C)C(O)C(C)[C@H](OC(C)=O)C1C (some centres undefined) | x | -2% | x
13 | CS(=O)(=O)c1ccc([C@H](O)[C@H](CF)NC(=O)C(Cl)Cl)cc1 | x | -5% | x
14 | CC(=O)Oc1ccc(-c2cc3ccc(OC(C)=O)cc3oc2=O)cc1 | 25% | 6% | x
15 | COc1ccc(/C(N)=N/OC(=O)CSc2ccccc2)cc1 | -9% | -8% | x
16 | O=C1NC[C@H](c2ccccc2)OC(=O)[C@@H](Cc2ccc(F)cc2)CC/C=C/C[C@H]1CC(=O)N(CCO)Cc1ccccc1 | 2% | -4% | x
17 | O=C1NC[C@@H](c2ccccc2)OC(=O)[C@@H](Cc2ccc(F)cc2)CC/C=C/C[C@@H]1CC(=O)N(CCO)Cc1ccccc1 | 0% | 0% | x
18 | O=C(O)Cn1nc(C(F)(F)F)c2c1CCCCC2 | -15%[56.9 µM] | -6% | 1.0
19 | COc1cc2c(cc1OC)C1C(=O)c3cc(OS(C)(=O)=O)c(OC)cc3C1N(C)C2=O (centres undefined) | u | -1% | x

item | ALOX12 inh | D2 antag
9 | -11% | 25
10 | u | x
11 | x | x
12 | x | x
13 | x | x
14 | 1% | x
15 | -7% | x
16 | u | x
17 | -5% | x
18 | 18% | -1
19 | -22% | x

An excerpt of these results, with one line to a screen:
9. Cc1ccc2c(CC(=O)N3CCN(S(=O)(=O)c4ccc5c(c4)OCCO5)CC3)coc2c1
10. CC(C)=CCC[C@](C)(OC1OC(COC2OCC(O)C(O)C2O)C(O)C(O)C1O)C1CC[C@]2(C)C1C(O)CC1[C@@]3(C)CCC(O[C@@H]4O[C@H](CO)C(O)C(O)C4O[C@@H]4OC(CO)C(O)C(O)C4O)C(C)(C)C3CC[C@]12C (some centres undefined)
11. NC(CO)(CO)CO
12. COC1C=CO[C@@]2(C)Oc3c(C)c(O)c4c(O)c(c(C=NN5CCN(C)CC5)c(O)c4c3C2=O)NC(=O)/C(C)=C\C=CC(C)C(O)[C@@H](C)C(O)C(C)[C@H](OC(C)=O)C1C (some centres undefined)
13. CS(=O)(=O)c1ccc([C@H](O)[C@H](CF)NC(=O)C(Cl)Cl)cc1
14. CC(=O)Oc1ccc(-c2cc3ccc(OC(C)=O)cc3oc2=O)cc1
15. COc1ccc(/C(N)=N/OC(=O)CSc2ccccc2)cc1
16. O=C1NC[C@H](c2ccccc2)OC(=O)[C@@H](Cc2ccc(F)cc2)CC/C=C/C[C@H]1CC(=O)N(CCO)Cc1ccccc1
17. O=C1NC[C@@H](c2ccccc2)OC(=O)[C@@H](Cc2ccc(F)cc2)CC/C=C/C[C@@H]1CC(=O)N(CCO)Cc1ccccc1
18. O=C(O)Cn1nc(C(F)(F)F)c2c1CCCCC2
screen / no.	9	10	11	12	13	14	15	16	17	18
RGS4 inhibitor	16%	-15%	x	x	x	25%	-9%	2%	0%	-15%[56.9 µM]
GRP78 ERSR act	-4%	-6%	-6%&3%	-2%	-5%	6%	-8%	-4%	0%	-6%
D2 agonist	0.4	x	x	x	x	x	x	x	x	1.0
ALOX12 inh	-11%	u	x	x	x	1%	-7%	u	-5%	18%
D2 antag	25	x	x	x	x	x	x	x	x	-1
